HPGD block: qHTS Assay for Inhibitors of HPGD (15-Hydroxyprostaglandin Dehydrogenase); hit rate 4.3% among 150,000; AID 894, 2007; Potency, µM, for the others: at the top dose activity change, negative = inhibition, most hits filed as inhibitors; 15-hydroxyprostaglandin dehydrogenase [NAD(+)] (Homo sapiens), P15428; purified HPGD, NADH fluorescence kinetic, PGE2 substrate; active = well fitted inhibition curve with a large enough effect (not every such curve was filed as active); inconclusive = small, poorly fitted or top-dose-only effect, or another doubt; inactive = no such curve, though single readings can be large or run the other way;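 further: top concentration of the series not given in the record; plate controls included wells without enzyme; inactives centre near -10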
Target sequence (P15428 whole entry, looked up): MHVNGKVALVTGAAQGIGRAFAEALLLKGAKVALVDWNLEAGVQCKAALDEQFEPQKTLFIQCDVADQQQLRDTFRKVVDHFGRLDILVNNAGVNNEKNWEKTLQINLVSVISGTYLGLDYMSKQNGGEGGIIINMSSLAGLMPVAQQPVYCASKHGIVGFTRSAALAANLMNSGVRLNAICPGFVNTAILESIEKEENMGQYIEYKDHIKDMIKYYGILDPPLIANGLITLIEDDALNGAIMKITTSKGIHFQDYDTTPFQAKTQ
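NADH formation kinetics: reaction with 30 uM PGE2 and 1 mM NAD+ (final), 20 nM enzyme, Tris-HCl pH 8 with Tween 20, after 15 min compound preincubation at room temperature. Fluorescence change, last versus first of five reads.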
* = called active by the depositor; ? = inconclusive; & = joins results of further samples. On the % scale 0 is the no-effect control and ±100 the full control effect; potency means the concentration at half of the fitted maximal effect. Not all compounds are listed. The share of hits here may be higher or lower than overall.

The opening 5 compounds (preview)
canonical_smiles,HPGD block
COc1ccccc1C1NC(c2ccccc2OC)C(C)C(=O)C1C (stereo unspecified),-6%
CC(=O)N[C@@H](CSC/C=C(\C)CC/C=C(\C)CC/C=C(\C)CCC=C(C)C)C(=O)O,-4%
CCS(=O)(=O)N1CCCC(C(=O)NCCc2ccc(C)cc2)C1 (stereo unspecified),-11%
COc1ccc(C(=O)Nc2ccccc2C(=O)NCc2ccco2)cc1OC,-20%
Cn1c(SCc2nc(-c3ccc(Cl)cc3)no2)nnc1-c1cccs1,-27%

The whole of this part, previewed entries included:
canonical_smiles,HPGD block
COc1ccccc1C1NC(c2ccccc2OC)C(C)C(=O)C1C (stereo unspecified),-6%
CC(=O)N[C@@H](CSC/C=C(\C)CC/C=C(\C)CC/C=C(\C)CCC=C(C)C)C(=O)O,-4%
CCS(=O)(=O)N1CCCC(C(=O)NCCc2ccc(C)cc2)C1 (stereo unspecified),-11%
COc1ccc(C(=O)Nc2ccccc2C(=O)NCc2ccco2)cc1OC,-20%
Cn1c(SCc2nc(-c3ccc(Cl)cc3)no2)nnc1-c1cccs1,-27%
COc1cccc(NC(=S)NNC(=O)C(C)n2nc(C)c([N+](=O)[O-])c2C)c1 (stereo unspecified),-3%
CC(NC(=O)C(C(=O)c1cccc([N+](=O)[O-])c1)n1cc(Cl)ccc1=O)c1ccccc1 (stereo unspecified),-2%
Cc1cc(C)cc(C(=O)/C=C2\NC(=O)CS2)c1,?

No new results follow: entries from further up.
canonical_smiles,HPGD block
CC(NC(=O)C(C(=O)c1cccc([N+](=O)[O-])c1)n1cc(Cl)ccc1=O)c1ccccc1 (stereo unspecified),-2%
Cc1cc(C)cc(C(=O)/C=C2\NC(=O)CS2)c1,?

(more compounds)
canonical_smiles,HPGD block
CN(CC(O)CN)CC(O)CN1CCCCC1 (stereo unspecified),-8%
CC1CCCN(c2ccc(C(=O)Nc3nnc(C4CC4)s3)cc2[N+](=O)[O-])C1 (stereo unspecified),-2%
Cc1ccc(N2C(=O)c3ccc(C(=O)O)cc3C2=O)c(C)c1,-21%
O=C(O)[C@@H]1C[C@@H](C(=O)O)N1,-11%&-2%
COc1cc(-c2noc(-c3ccccc3C(=O)NCc3ccco3)n2)cc(OC)c1OC,-4%
CCOC(=O)c1c(NC(=O)CSc2n[nH]c(CNc3ccccc3)n2)sc(C)c1C,-16%
CCc1c2c(nc3ccc(OC)cc13)OC(C)C2 (stereo unspecified),-14%
CCC(C)[C@H](NC(=O)N1CCCC1)C(=O)O (stereo partly specified),0%
COc1ccc2cc(CCC(C)=O)ccc2c1,-17%&-4%
COc1ccc(CCNC(=S)Nc2cccc(C)c2)cc1,-6%
CCOC(=O)N1CCC(N2Cc3cccc(C(=O)Nc4ccc(OC)c(OC)c4)c3C2=O)CC1,-8%
CC(=O)Nc1ccc2c(CSc3nnc(-c4cccnc4)n3-c3ccc(C)cc3C)cc(=O)oc2c1,-8%
CCC(=O)N1c2ccccc2[C@@H](N(C(C)=O)c2ccccc2)C[C@H]1C,-5%
COCCNc1c(-c2ccc(O)cc2)nc2ccc(Cl)cn12,-7%
COc1cc2c(cc1OC)CN(C(=O)CCCN1C(=O)c3ccccc3C1=O)CC2,-11%
COc1ccccc1-n1nnnc1SCC(=O)Nc1ccccn1,-15%
CN1C(=O)CSC1=NC12CC3CC(CC(C3)C1)C2,-13%
Cn1c(SC/C=C/c2ccccc2)nnc1-c1cnccn1,-7%
NC(=O)C1CCN(c2nc(-c3ccccc3)nc3c2oc2ccccc23)CC1,-23%
Cn1cc([N+](=O)[O-])c(C(=O)N/N=C/c2ccccc2)n1,-2%
C=CCNC(=S)NCC1COc2ccccc2O1 (stereo unspecified),-19%
CC1=C(C(=O)OCc2ccc3c(c2)OCO3)C(c2ccccc2)NC(=O)N1 (stereo unspecified),-15%
COC(=O)c1c(NC(=O)CN2CCN(c3ccccc3OC)CC2)c2c(C)cccc2n1C,5%
COc1ccc(S(=O)(=O)NNC(=O)c2csc(-n3nc(C)cc3C(F)(F)F)n2)cc1,-3%
CC(C(=O)Nc1ccccc1C(=O)N1CCOCC1)N(c1ccccc1)S(C)(=O)=O (stereo unspecified),1%
O=C(NCc1ccc(C(F)(F)F)cc1)C1CC(c2c(Cl)cccc2Cl)=NO1 (stereo unspecified),-9%
CCCC(=O)C1=C(O)C(C(=O)OC)C(C)(C)CC1=Nc1ccncc1 (stereo unspecified),-13%
Cc1nc2ccc(NC(=O)c3ccc(Cl)c([N+](=O)[O-])c3)cc2s1,-1%
S=c1[nH]nc(-c2ccco2)n1/N=C/c1ccc(Cl)cc1Cl,2.2µM*
N[C@@H]1CONC1=O,-12%&-4%&1%
O=C(NCc1ccccn1)c1cn(CCc2ccccc2)nn1,-6%
CCCN1Cc2cccc(C(N)=O)c2C1=O,-10%
CSc1nc2sc3c(c2c(=O)[nH]1)CCc1ccccc1-3,-8%
CC(=O)c1cccc(NC(=O)c2cc3ccccn3n2)c1,-12%
COCCn1c(=NC(=O)CSCC(=O)Nc2cc(C)on2)sc2cc(C(=O)OC)ccc21,-11%
Cc1nc(N)[nH]c(=O)c1CCC(=O)OCC(C)C,-4%
O=C(CNC(=O)c1cccc(OC(F)F)c1)OCc1cc(=O)n2cc(Br)ccc2n1,-21%
COC(=O)[C@H](CCSC)NC(=O)NCc1cccs1,0%
COc1ccc(C(=O)COC(=O)C(C(C)C)N2C(=O)C3C4C=CC(C4)C3C2=O)cc1 (stereo unspecified),-2%
CCc1nnc(NC(=O)C2CCCN2C(=O)Nc2ccccc2OC)s1 (stereo unspecified),-9%
Cn1nc(C(=O)OCCN2C(=O)c3ccccc3C2=O)c2ccccc2c1=O,20µM*
Cc1ccc(O)c(C(=O)c2cc(C#N)c(=O)n(-c3c(C)n(C)n(-c4ccccc4)c3=O)c2)c1,0%
COC(=O)c1cc2ccsc2n1CC(=O)NCC1CCCO1 (stereo unspecified),-6%
COCCNC(=O)c1ccccc1NC(=O)c1ccc(Cl)c(S(=O)(=O)Nc2ccc(C)cc2C)c1,-17%
Cc1ccc(CN2CCN(CC(=O)N=Nc3c(O)[nH]c4ccccc34)CC2)cc1,-3%
O=C(CN(c1ccccc1)S(=O)(=O)c1ccccc1)NCCSCc1ccco1,-8%
O=C(COC(=O)C1(c2ccc(F)cc2)CCCC1)N1CCOCC1,2%
Nc1ccc[n+](Cc2ccccn2)c1,?
CCCCn1c(CNC(=O)c2cccs2)nc2ccccc21,-13%
CC(=O)NN1C(=O)/C(=C\c2ccc(Br)o2)SC1=S,?
CS(=O)(=O)N1CCC2(CCCN(C(=O)Nc3cccc(C#N)c3)C2)CC1,-2%
Cc1nc(-c2cccc(-c3noc(C)n3)c2)no1,-18%
O=C(Nc1c(C(=O)N2CCOCC2)cnn1-c1ccccc1)c1ccccc1,-11%
CSC(=O)CC(=O)NC(=O)c1ccccc1,-12%
COc1ccccc1N1C(=O)C2CC=CC(C)C2C1=O (stereo unspecified),-6%
O=C(NCC1CCS(=O)(=O)C1)NCC1CCS(=O)(=O)C1 (stereo unspecified),-21%

Next part.
canonical_smiles,HPGD block
c1ccc2oc(SCc3cn4ccccc4n3)nc2c1,-20%
CC(C)c1nc(C#N)c(N2CCOCC2)o1,-5%
COCCN(C(=O)Nc1ccc(OC)cc1OC)C1CCN(C(C)C)CC1,1%
CCOC(=O)N1CCN(Cc2nc3c(c(=O)n(C)c(=O)n3C)n2CCCc2ccccc2)CC1,3%
COc1ccccc1-c1nnc2sc(COc3ccc(Cl)cc3Cl)nn12,1.3µM*
CCOC(=O)c1cnn(-c2ccccc2)c1NC(=O)c1ccccc1C,-3%
Cc1cc(C)c2c(N)c(C(=O)Nc3nccs3)sc2n1,?
CCc1cccc(CC)c1NC(=O)CSc1nc2ccc(N3C(=O)C4C5C=CC(C5)C4C3=O)cc2s1 (stereo unspecified),8.9µM*
Cc1cc(NC(=O)c2cc(-c3ccco3)on2)n(-c2ccccc2)n1,-11%
COc1ccc(/C=N/Nc2ncnc3scc(-c4ccccc4)c23)cc1OC,?
CCCCn1c(N)c(-c2nc3ccccc3o2)c2c([N+](=O)[O-])nn(C)c(=O)c21,-21%
COC(=O)[C@@H]1C[C@]2(OC(=O)c3ccccc3)C=CC(=O)C[C@@H]2N1C(=O)OCc1ccccc1,-17%
CCSc1cc(N2CCCC2)nc(-c2ccc(F)cc2)n1,-7%
COc1cc(C(=O)Nc2ccc(NC(=O)C3CC3)nc2)cc(OC)c1OC,-6%
CC1(C)CC(=O)C2=C(C1)Nc1ncnn1C2c1ccccn1 (stereo unspecified),-21%
COc1cccc(-c2nnc(Nc3nc4c(F)cccc4s3)o2)c1,?
COC(=O)c1sc(S(=O)(=O)N2CCN(c3ccc(OC)cc3)CC2)c(C(=O)OC)c1C,-22%
CCS(=O)(=O)c1nc(S(=O)(=O)c2ccc(Cl)cc2)c(NCc2ccco2)s1,-6%
Cc1ccc(N=Nc2c(N)nn3c(C)cc(C)nc23)cc1,-2%
CCOc1cc(C2C(C(=O)c3ccco3)=C(O)C(=O)N2CCc2ccccc2)ccc1O (stereo unspecified),-3%
CCOC(=O)c1cnc(SCc2nc(N)nc(Nc3ccc(F)cc3)n2)nc1N,-9%
O=C(CCN1C(=O)c2ccccc2C1=O)NCCC1=CCCCC1,?
N#Cc1nc(Cc2ccccc2)oc1NCc1ccccc1,14µM*
C#CCCOC(=O)N1C2=NC(C(=O)OC)=C(C(=O)OC)[C@@H]3Nc4ccccc4[C@]23C[C@H]1C(=O)OC,1%

By substructure: the entries above with a nitro group on carbon.
canonical_smiles,HPGD block
COc1cccc(NC(=S)NNC(=O)C(C)n2nc(C)c([N+](=O)[O-])c2C)c1 (stereo unspecified),-3%
CC(NC(=O)C(C(=O)c1cccc([N+](=O)[O-])c1)n1cc(Cl)ccc1=O)c1ccccc1 (stereo unspecified),-2%
CC1CCCN(c2ccc(C(=O)Nc3nnc(C4CC4)s3)cc2[N+](=O)[O-])C1 (stereo unspecified),-2%
Cn1cc([N+](=O)[O-])c(C(=O)N/N=C/c2ccccc2)n1,-2%
Cc1nc2ccc(NC(=O)c3ccc(Cl)c([N+](=O)[O-])c3)cc2s1,-1%
CCCCn1c(N)c(-c2nc3ccccc3o2)c2c([N+](=O)[O-])nn(C)c(=O)c21,-21%

More compounds:
canonical_smiles,HPGD block
Cc1ccc(Cn2ccc(NC(=O)c3noc4c3CCc3ccccc3-4)n2)cc1,?
Cc1ccc2cc(C=O)c(N(C)C)nc2c1,-12%
O=C(Nc1ccc(Oc2ccccc2)cc1)C1CCN(c2c3c(nc4ncnn24)CCC3)CC1,-15%
CCOc1ccc2cc(C3CC(c4ccco4)=NN3S(=O)(=O)c3ccccc3)c(Cl)nc2c1 (stereo unspecified),-19%
CC(C)(C)NC(=O)C1Cc2ccccc2CN1C(=O)Nc1ccccc1Cl (stereo unspecified),-5%
CCCCOc1ccc(CSc2n[nH]c(C)n2)cc1,-13%
Cn1nnc(NC(=O)c2ccc(C(C)(C)C)cc2)n1,-6%
CCCCNC(=O)c1ccccc1NC(=O)c1ccccc1N(C)S(C)(=O)=O,25µM*
C=C(CC(=O)O)C(=O)O (tested in a mixture with another compound),-12%
O=C(c1ccc(Br)cc1)N(C1=NCCCCS1)c1ccccc1,-8%
Cc1nn(-c2ccccc2)c(C)c1/C=N/NC(=O)CSc1nnc(-c2ccccc2)n1-c1ccc(Cl)cc1,-13%
Cc1ccc(C(C(=O)NCc2ccco2)N(CCc2ccccc2)C(=O)Cn2nnc3ccccc32)o1 (stereo unspecified),-13%
CCn1c(SCCOc2ccc(Cl)cc2)nnc1-c1cccs1,-23%
O=C(CCc1ccc(O)cc1)c1c(O)cc(O)cc1O,35µM*
Cc1cccc(N2CCN(C(c3cccs3)c3nnnn3C(C)(C)C)CC2)c1C (stereo unspecified),-16%
CCC(C)NC(=O)COc1ccc(S(=O)(=O)N2CCOCC2)cc1 (stereo unspecified),-7%
CC(=O)C1=C(c2ccccc2)OC(N)=C(C#N)C1c1ccc(O)cc1 (stereo unspecified),-12%
COc1ccc(-c2cc(C(=O)NCc3cccnc3)no2)cc1OC,?
CC(C)C(=O)Nc1ccc([N+](=O)[O-])c(C(F)(F)F)c1,-17%&-23%&-9%&-9%
CC(C)(C)NC[C@H](O)COc1nsnc1N1CCOCC1,-13%&4%&-7%
COC(=O)CCC(=O)OC1(C)C(=O)C=C2C=C(C3CC3)N(CCc3c[nH]c4ccccc34)C=C2C1=O (stereo unspecified),-7%
COc1ccc(OC)c(C2C(C(=O)Nc3ccccc3OC)=C(C)Nc3nc(CCCO)nn32)c1 (stereo unspecified),-8%
CCOc1ccc(NS(=O)(=O)c2ccc(NC(=O)[C@@H]3CCCC[C@@H]3C(=O)O)cc2)cc1,-2%
Fc1cc(F)c2nc(Nc3nc4c(F)cccc4s3)sc2c1,?
COc1cc(NC(=S)Nc2ccc(Br)cc2Cl)c(OC)cc1Cl,-27%
CCCCNC(=O)c1ccc(N2CCC3(CC2)OCCO3)c([N+](=O)[O-])c1,-6%
CC1Cc2ccccc2N1C(=O)CCS(=O)(=O)c1cccs1 (stereo unspecified),-9%
CC(C)C[C@H](NC(=O)Nc1ccc(Oc2ccccc2)cc1)C(=O)O,-4%
O=C1NCC(COCC2CC=CCC2)O1 (stereo unspecified),-14%
COC(=O)C1C(=O)N2CCCSC2=C(C#N)C1c1cccs1 (stereo unspecified),-7%

Screens (PubChem BioAssay)
